# Assay outcomes from PubChem BioAssay.
# Menin MLL FP FL = qHTS Assay for Inhibitors Targeting the Menin-MLL Interaction in MLL Related Leukemias: Competition With Fluorescein Labeled MLL-derived Peptide. 290,000 tested, under 10 active. Fluorescence polarization, fluorescein-MLL peptide displacement from menin. FP activity change, % at 61.4 µM; inconclusive = falling polarisation curve, or a change in total fluorescence; inactive = total fluorescence flat and polarisation flat or rising; no compound was filed as active; the % refers to the polarisation; negative = inhibition;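 also: % of control where 0% means no effect; inhibitors lower the polarisation; unlabelled MLL peptide was the positive control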
# gsp antagonist = qHTS for Antagonists of gsp, the Etiologic Mutation Responsible for Fibrous Dysplasia/McCune-Albright Syndrome: qHTS. Potency, µM (highest dose often 76.9 µM), for the others: top-dose activity change, negative = inhibition, usual class: inhibitors. AID 624288, 2012. gsp-mutant cells, cAMP HTRF, 30 min; control for the full effect not named in the record. 340,000 tested, 0.4% active; active = falling curve of any shape with a large fitted effect; inconclusive = falling curve, mostly with a smaller effect; inactive = flat or rising curve; cell line not stated here;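 also: intracellular cAMP measured with PDE inhibitor Ro 20-1724 present during compound exposure; potency is read from the fitted curve at half-maximal effect; % is scaled to controls: 0 for no effect and ±100 for the full control effect; nearly all actives have a fitted effect of over 65% in size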
#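 Measurement of cellular cAMP by homogeneous time-resolved fluorescence following a 30 min compound exposure at 37C. The PDE inhibitor […] was present throughout; the assay buffer was DPBS with 0.05% BSA and 0.005% Tween 20.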
# TRPML1 inh = qHTS for Inhibitors of the Human Mucolipin Transient Receptor Potential 1 (TRPML1) | TRPML1-inducible cells, Ca2+ dye fluorescence, FDSS; stronger effect = lower value; inhibition of EC80 agonist-evoked calcium signal | activity change, negative = inhibition, % (concentration not given with the values) | 390,000 tested, 0.02% active | AID 624415, 2012; in the data active means activity change below about -50%; inconclusive means about -30% to -50%; inactive means above about -30%;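 also: stimulus is agonist 54-4 at its EC80 concentration; % is scaled to controls: 0 for no effect and ±100 for the full control effect; compound concentration not given in the record; the text of the record puts the active cut at -80%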
# Target sequence (Q9GZU1 whole entry, looked up): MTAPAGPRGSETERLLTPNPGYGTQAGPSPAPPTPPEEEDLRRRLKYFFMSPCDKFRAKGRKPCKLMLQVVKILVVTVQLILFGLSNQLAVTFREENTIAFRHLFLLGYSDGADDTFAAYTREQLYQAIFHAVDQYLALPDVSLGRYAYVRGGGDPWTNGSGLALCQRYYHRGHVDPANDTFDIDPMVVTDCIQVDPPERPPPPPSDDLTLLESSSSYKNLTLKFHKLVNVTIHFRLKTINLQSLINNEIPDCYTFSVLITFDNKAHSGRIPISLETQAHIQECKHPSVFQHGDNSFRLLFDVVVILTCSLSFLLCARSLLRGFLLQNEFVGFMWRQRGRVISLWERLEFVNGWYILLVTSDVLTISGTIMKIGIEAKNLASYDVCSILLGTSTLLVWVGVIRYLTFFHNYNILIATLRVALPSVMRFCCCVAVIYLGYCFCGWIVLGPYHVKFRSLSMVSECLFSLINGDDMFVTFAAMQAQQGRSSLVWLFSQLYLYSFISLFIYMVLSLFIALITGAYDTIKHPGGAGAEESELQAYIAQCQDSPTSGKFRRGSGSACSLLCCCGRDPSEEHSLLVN
#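 Calcium fluorescence in TRPML1-DL cells induced overnight with Tet: a 110 s read after compound pin addition, then a 110 s antagonist read after challenge with 54-4 at 4 uM final (EC80).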
# gsp ag = qHTS for Agonist of gsp, the Etiologic Mutation Responsible for Fibrous Dysplasia/McCune-Albright Syndrome: qHTS. gsp mutant cells, cAMP HTRF, 30 min; control for the full effect not named in the record. 340,000 tested, 0.13% active. Potency, µM (titrated, usually from 76.9 µM), without a hit: top-dose activation (cAMP increase), actives largely listed as activators; active = well fitted activation curve with a large enough effect; inconclusive = small, poorly fitted or top-dose-only effect, or another doubt; inactive = no such curve, though single readings can be large or run the other way; cell line not stated here;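 also: phosphodiesterase inhibitor Ro 20-1724 added with compounds to block cAMP breakdown; potency is read from the fitted curve at half-maximal effect; nearly all actives have a fitted effect of over 60% in size; about a fifth of the inactives were tested at one dose only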
#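 Cells in DMEM/10% FBS with G418 were pretreated with compounds in DMSO plus […] (300 uM stock) for 30 min at 37C. cAMP was measured by HTRF (cAMP-d2 plus anti-cAMP antibody-K) after 30 min at room temperature.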
# ClpP mod = qHTS Assay for Activators of ClpP; ATP-dependent Clp protease proteolytic subunit (Bacillus subtilis (strain 168)), P80244; purified B. subtilis ClpP, FRET peptide cleavage, 20 min; 340,000 tested, 1.9% active; Potency, µM (doses to about 57.5 µM), inactives show at the top dose activity change, negative = active; active = well fitted falling curve with a large enough effect; inconclusive = small, poorly fitted or top-dose-only effect; inactive = no such curve, though single readings can be large or run the other way; also: potency is read from the fitted curve at half-maximal effect; the source files actives as falling curves though it sought activators and does not explain the sign; nearly all actives have a fitted effect of over 65% in size; many hits overshoot -100%
# Target sequence (P80244 whole entry, looked up): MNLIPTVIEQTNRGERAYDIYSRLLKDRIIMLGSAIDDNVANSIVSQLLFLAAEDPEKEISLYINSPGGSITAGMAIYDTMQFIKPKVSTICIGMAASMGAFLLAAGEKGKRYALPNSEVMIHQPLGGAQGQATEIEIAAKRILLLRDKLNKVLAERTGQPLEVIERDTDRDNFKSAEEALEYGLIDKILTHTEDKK
#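 Buffer: 100 mM Tris/HCl pH8, 100 mM KCl, 0.05% low protease BSA, 2.5% glycerol, 0.01% Tween-20. ClpP 10 microg/mL final; 20 min RT; delta FRET normalized to ADEP and DMSO controls.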
# TRPML1 agonist = qHTS for Agonists of the Human Mucolipin Transient Receptor Potential 1 (TRPML1); TRPML1-expressing cells, Ca2+ dye fluorescence, FDSS; host cell line not named in the record; reference of the full effect not given here; activation, % (test concentration not listed); 410,000 tested, 0.12% active; in the data active = activation above about 50%; inconclusive = about 30% to 50%; inactive = below about 30%; also: 0% is about no effect; the text of the record puts the active cut at 80%
#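 Tetracycline-induced TRPML1-DL cells are seeded and incubated overnight before loading with a no-wash Ca2+ dye and quencher. Agonist activity is taken from the 110 s fluorescence read following compound pin-transfer on an FDSS, before EC80 54-4 challenge.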
# Numbers without * were called inactive; ? = inconclusive; / = no result given; & = joins results of further samples; [ ] = dose if it differs, or a comment.
# Every second line gives: Menin MLL FP FL, gsp antagonist, TRPML1 inh, gsp ag, ClpP mod, TRPML1 agonist
Cc1cccc(C)c1-n1ncc(C(=O)NC2CCCC2)c1C1CCNCC1
  0.3, 9%, 3, ?, -1.4%, 0.3
c1ccc(C2(c3ccccc3)OCC(Cn3cncn3)O2)cc1 (centres undefined)
  -0.2, -14%, 8, -20%, 1.5%, 0.2
O=C(CN(Cc1ccccc1F)C(=O)c1csnn1)NCc1ccc2c(c1)OCO2
  -0.7, -2%, -4, 16%[15.4 µM], -2.3%, -0.9
C=CCN1C(=O)c2ccc(C(=O)N(C)Cc3ccc(C)o3)cc2C1=O
  /, 2%, -14, -8%[15.4 µM], 1.0%, 0.4
Cc1ccccc1NC(NC(=O)OCCn1c([N+](=O)[O-])cnc1C)C(Cl)(Cl)Cl (centres undefined)
  6.7, -17%, -1, 10%, -4.7%, -0.3
CC(Oc1ccc2c3c(c(=O)oc2c1)CCCC3)C(=O)NC1CC(C)(C)NC(C)(C)C1 (centres undefined)
  /, 15%, -1, 10%, 4.2%, -1.2
CCOC(=O)c1c(C)c(C(=O)NCCCN2CCCC2=O)c(C)n1CC
  1.6, 11%, 11, -29%, -1.3%, 0.7
CCc1ccc(-c2nc(CN3CCC(C(=O)NCCN(CC)c4ccccc4)CC3)c(C)o2)cc1
  2.7, 18%, 8, -50%[inhibitor], 0.6%, 0.7
CNC(=O)c1cccc(NC(=O)c2ccccc2OCc2ccccc2)c1
  0.4, 15%, 12, 18%[15.4 µM], /, 0.3
O=[N+]([O-])c1cc(S(=O)(=O)Nc2ccccc2)ccc1NCc1cccnc1
  4.0, 5%, -24, 28%, 1.2%, 0.4
COc1ccc(Br)cc1CNC(=O)c1cc2c(=O)n(C)c3ccccc3c2s1
  /, /, 14, /, ?, -0.6
Cc1ccc(-c2csc(N)n2)cc1
  /, 10%, 1, ?, /, 0.6
Cc1cccc(C(=O)NCC(=O)N2CC=C(c3ccccc3)CC2)c1
  /, -2%, -8, -4%, 1.0%, -1.6
CC(C)CNC(=O)CCc1nc(-c2ccccc2)no1
  2.1, 10%, -2, -9%[15.4 µM], 1.2%, -0.6
COC(=O)C1=C(C)N(C)C(=S)NC1c1ccccc1 (centres undefined)
  3.8, 8%, 9, -4%, -1.9%, -0.1
Cc1ccc2c(CNCC(C)c3ccccc3)c(C(=O)O)n(Cc3ccccc3C)c2c1 (centres undefined)
  /, /, 1, /, -7.0%, 2.0
O=C1NC[C@H](Cc2ccccc2)N(C[C@H]2CCCN2C[C@H](Cc2ccccc2)N2C[C@H](Cc3ccccc3)N(CC3CCCCC3)C(=O)C2=O)C1=O
  /, ?, -15, /, -0.4%, -1.0
Cc1cc2c(cc3c(SCc4cccc(Cl)c4)nnc(C)n32)o1
  /, /, 8, /, -8.7%, -0.8
CCOc1ccc(Br)cc1S(=O)(=O)NC1CCCC1
  /, -6%, 4, -12%, -0.9%, 1.3
O=C(Nc1cccc(-n2cnnn2)c1)c1cccs1
  -2.9, 4%, 5, 0%, -1.6%, -1.0
Cc1nn(CC(=O)NC(C)CCc2ccccc2)c(=O)c2nn(-c3ccccc3)c(C)c12 (centres undefined)
  0.2, -12%, -9, 11%, -2.0%, 1.0
COc1ccc(C(CCNCc2ccc(OC(C)C)cc2)C(C)C)cc1 (centres undefined)
  2.6, 3%, 9, -8%[15.4 µM], /, 0.2
O=C(c1cccs1)N1C[C@@H](O)[C@H](n2cc(-c3ccc(F)cc3)nn2)C[C@@H]1c1ccc(Cl)cc1
  /, /, -14, 3%, 1.4%, -0.5
Cc1ccc(CNC(=S)Nc2ccc(NS(=O)(=O)c3ccc(C)cc3)cc2)cc1
  /, ?, 1, ?, -5.5%, -0.2
Cc1ccc(N2C(=O)C3N=NN(CC(=O)N4N=C(c5cccc6ccccc56)CC4c4ccccc4)C3C2=O)cc1 (centres undefined)
  4.0, 0%, 12, ?, ?, 2.8
CN(C)/C=C/C(=O)c1cnc(-c2ccccc2)s1
  1.6, 4%, -1, ?, /, 0.3
Fc1ccc(NC(=S)Nc2ccc(F)c(Cl)c2)cc1Cl
  1.2, ?, 9, -12%, -0.2%, -0.4
Cc1cc(C(=O)CSc2nnc(Cc3ccccc3)o2)c(C)n1Cc1ccc2c(c1)OCO2
  ?, -3%, -5, -16%, 3.2%, 0.2
N#CCc1ccc(NC(=O)Cn2c(=O)oc3ccccc32)cc1
  2.2, 8%, -7, 2%[15.4 µM], -1.1%, 0.3
COC(=O)c1ccccc1NC(=O)Cn1c(CCC(=O)O)ccc1-c1cccs1
  2.8, -6%, -10&-12, -6%, -4.1%&-4.7%, 1.5&2.2
O=C(OC1CCOC1=O)c1cc(S(=O)(=O)N2CCOCC2)c(Cl)cc1Cl (centres undefined)
  /, -6%, 29, 14%, -9.7%, 1.0
O=C(Cc1cccs1)NCc1ccccc1F
  1.0, 10%, 9, -5%, -2.3%, 0.1
COC(=O)[C@@]1(Cc2ccc(F)cc2)[C@H]2c3cc(C(=O)N4CCCC4)n(Cc4ccc(C)c(F)c4F)c3C[C@H]2CN1C(=O)c1ccccc1
  4.1, /, /, /, 0.9%, 0.2
COc1cccc(-n2nnc3c(=O)n(Cc4cccc(F)c4)cnc32)c1
  1.7, -13%, -1, ?, -4.9%, 2.0
COc1cc(NC(=O)CN2C(=O)NC(C)(c3ccc4ccccc4c3)C2=O)c(C)cc1[N+](=O)[O-] (centres undefined)
  5.5, -18%, 10, -8%, 0.9%, 0.6
CCOc1ccc(CNC(=O)C2CCN(C(=O)N3CC(C)Oc4ccccc43)CC2)cc1 (centres undefined)
  1.9, -19%, -9, -118%[inhibitor], -1.6%, 0.0
Cc1cc(OCC(=O)OCC(=O)NC2CCCCCC2)ccc1Cl
  /, 8%, 11, -1%, 1.1%, -0.1
Cc1ccc(S(=O)(=O)NCc2ccccc2)cc1C(=O)NCC(=O)Nc1c(C)cccc1C
  /, /, -5, 27%, 1.5%, -0.9
O=C(Cn1cnc([N+](=O)[O-])c1)NCc1ccc(F)cc1
  4.7, 10%, -7, 10%, -3.9%, -0.4
O=C(NCc1ccccc1CN1CCCC1)c1cc2ccccc2o1
  /, -1%, 1, 2%, -16%, 0.7
O=C(NCc1cccs1)c1cc(S(=O)(=O)N2CCCCC2)ccc1Cl
  4.0, -10%, 10, 3%, -2.1%, 0.1
COC(=O)C1=C(O)C2(C(=O)O)CC(C(=O)OC)=C(O)C(C(=O)O)(C1)C2
  -0.1, 4%, -13, 6%[15.4 µM], /, 0.6
O=C1[C@@H]2[C@H]3CC[C@H](C3)[C@@H]2C(=O)N1O
  6.3, 15%, -15, 3%[15.4 µM], /, 0.1
C/C(=C\C(=O)N1CCc2ccccc21)C(=O)O
  1.8, 8%, 5, -31%[inhibitor], -1.5%, 0.1
CCCCOc1ccc(/C=N/NC(=O)c2nnn(-c3nonc3N)c2C)cc1
  /, 7%, -6, 12%, 3.8%, 1.2

# A stretch of the results above, as a working copy:
# Every second line gives: Menin MLL FP FL, gsp antagonist, TRPML1 inh, gsp ag, ClpP mod, TRPML1 agonist
C/C(=C\C(=O)N1CCc2ccccc21)C(=O)O
  1.8, 8%, 5, -31%[inhibitor], -1.5%, 0.1
CCCCOc1ccc(/C=N/NC(=O)c2nnn(-c3nonc3N)c2C)cc1
  /, 7%, -6, 12%, 3.8%, 1.2

# (continued)
# Every second line gives: Menin MLL FP FL, gsp antagonist, TRPML1 inh, gsp ag, ClpP mod, TRPML1 agonist
CC1(C)CC[C@]2(CO)CC[C@]3(C)C(=CCC4[C@@]5(C)CC[C@H](O)[C@@](C)(CO)C5CC[C@]43C)[C@@H]2C1 (some centres undefined)
  /, -24%, 72, 0%, 0.1%, 0.0
NC(=O)[C@H]1CC2(CC(c3cccc(NC(=O)COc4ccc(Cl)cc4)c3)=NO2)CN1C(=O)c1ccc(Cl)cc1 (some centres undefined)
  12, -7%, -6, /, -3.6%, 0.7
COc1ccc(/C=C2\SC(=O)N(CC(=O)NNC(=O)c3ccccc3O)C2=O)cc1
  6.8, -14%, 8, 9%[15.4 µM], 0.6%, -0.6
CCOc1ccc(N2C(=O)C3CCCN3C2=S)cc1 (centres undefined)
  /, 5%, -12, 6%, -1.5%, 0.3
CCC1(c2ccccc2)C(=O)NCNC1=O
  ?, 4%, -12, /, -1.8%, 0.7
CS(=O)(=O)c1ccc(NC(=O)c2ccccc2-n2cnnn2)cc1
  /, -7%, 19, -10%, 0.0%, 3.1
O=C(COC(=O)CN1C(=O)c2ccccc2C1=O)Nc1ccccc1[N+](=O)[O-]
  /, ?, 3, 23%, -1.6%, -1.3
Cc1ccccc1OCC(=O)N/N=C/c1sc(=O)n(Cc2cccc(C(=O)O)c2)c1Cl
  ?, ?, -9, -11%[15.4 µM], /, 0.6
CCCCn1c(=O)[nH]c2nc3cc(N)ccc3nc2c1=O
  ?, -11%, -21, 3%[15.4 µM], -2.9%, 74*
O=C(Nc1c2c(nn1-c1ccc(F)cc1)CS(=O)(=O)C2)c1ccc2c(c1)OCO2
  /, 2%, 13, -21%, -0.7%, -0.9
COc1cccc(CNC(=O)c2cc(S(=O)(=O)N3CCOCC3)cn2C)c1
  -0.2, 0%, 11, -9%, -3.6%, 1.1
NC(=O)CN1C(=O)C(=O)N(Cc2cccc(C(F)(F)F)c2)C1=O
  -27, 14%, -14, 17%, 0.8%, 0.8
CC1CN(S(=O)(=O)c2ccc(C(=O)N(C)C3CCCCC3)cc2)CC(C)O1 (centres undefined)
  /, 7%, 2, -10%[15.4 µM], -4.4%, 7.5
Cn1c(CCCOc2ccc(Cl)cc2Cl)nnc1SCC(=O)Nc1nccs1
  0.9, ?, -10, 6%, -2.6%, 0.9
COCC(=O)Nc1ccc(-c2cn3cccnc3n2)cc1
  2.9, -5%, -9, ?, -4.9%, -0.5
Cc1ccc(C(=O)OCC(=O)NC2CCS(=O)(=O)C2)c(C)c1 (centres undefined)
  /, 7%, -4, 12%, -1.6%, 1.8
Cc1cc(C)c(/C=C/c2onc(C)c2S(=O)(=O)N2CCC(C(=O)Nc3ccc(Cl)cc3C)CC2)c(C)c1
  /, /, 4, /, -4.1%, -0.9
CCOC(=O)/C(C#N)=C/C=C1/C=CC=CN1C
  ?, ?, 46, -18%, /, 1.6
Cc1ccc(CNC(=O)CN2CCN(Cc3ccc(F)cc3Cl)C2=O)cc1
  /, /, -19, /, -3.1%, -1.6
C=CCN1C(=O)c2ccc(C(=O)N(C)CC(=O)Nc3ccc(OCC)c(OCC)c3)cc2C1=O
  /, -11%, 7, 15%, -23%, -0.2
